hNpr1 antagonist: blocks ANP-stimulated signaling of human Npr1 receptor. P16066. HEK293 hNpr1 GloSensor cGMP, ANP-stimulated luminescence. Potency, µM (top dose mostly 46.3 µM), inactives show top-dose activity change, negative = inhibition, usual class: inhibitors. 1.6% of 76,000 active. AID 1347048; active = well fitted inhibition curve with a large enough effect; inconclusive = small, poorly fitted or top-dose-only effect; inactive = no such curve, though single readings can be large or run the other way;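 note: nearly all actives have a fitted effect of over 60% in size; nearly all hits also lower the signal before the agonist is added; a reference antagonist and vehicle were the controls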
Target sequence (P16066 whole entry, looked up): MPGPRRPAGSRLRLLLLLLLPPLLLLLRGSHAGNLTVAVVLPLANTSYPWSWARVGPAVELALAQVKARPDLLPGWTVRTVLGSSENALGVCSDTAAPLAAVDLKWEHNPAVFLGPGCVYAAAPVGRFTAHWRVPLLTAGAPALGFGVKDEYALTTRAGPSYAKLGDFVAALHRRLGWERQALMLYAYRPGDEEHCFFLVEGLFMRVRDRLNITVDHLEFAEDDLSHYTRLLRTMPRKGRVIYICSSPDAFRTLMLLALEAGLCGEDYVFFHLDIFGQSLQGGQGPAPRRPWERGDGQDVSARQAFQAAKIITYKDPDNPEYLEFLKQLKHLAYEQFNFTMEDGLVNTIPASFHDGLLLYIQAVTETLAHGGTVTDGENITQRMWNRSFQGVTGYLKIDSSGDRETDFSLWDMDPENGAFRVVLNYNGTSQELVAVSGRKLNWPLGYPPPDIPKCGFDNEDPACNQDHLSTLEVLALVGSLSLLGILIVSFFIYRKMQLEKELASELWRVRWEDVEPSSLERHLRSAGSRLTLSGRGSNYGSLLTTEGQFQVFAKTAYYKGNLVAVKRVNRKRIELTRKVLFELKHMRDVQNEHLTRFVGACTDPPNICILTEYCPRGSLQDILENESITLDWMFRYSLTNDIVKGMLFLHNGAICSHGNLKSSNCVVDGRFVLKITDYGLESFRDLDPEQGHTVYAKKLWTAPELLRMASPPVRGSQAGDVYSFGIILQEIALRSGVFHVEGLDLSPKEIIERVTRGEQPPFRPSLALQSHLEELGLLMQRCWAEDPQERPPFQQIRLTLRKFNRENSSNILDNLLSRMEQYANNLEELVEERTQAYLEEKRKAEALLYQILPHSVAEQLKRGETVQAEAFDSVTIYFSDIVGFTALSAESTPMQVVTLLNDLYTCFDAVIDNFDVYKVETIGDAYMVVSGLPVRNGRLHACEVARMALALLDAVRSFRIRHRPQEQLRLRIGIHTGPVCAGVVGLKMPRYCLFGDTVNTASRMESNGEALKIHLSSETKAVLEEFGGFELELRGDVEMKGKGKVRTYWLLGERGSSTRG
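HEK293 cells stably expressing human Npr1 and cGMP GloSensor pGS-40F, loaded 2 h with 2% GloSensor reagent, given compound 30 min at room temperature. Luminescence read before and 20 min after 0.1 nM hNppA.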
The depositor's hits bear a star; ? = inconclusive; & = joins results of further samples; [ ] = remark or other dose. % is set by controls: 0 for no effect and ±100 for the full control effect; potency is the fitted concentration of half-maximal effect. The list is partial; count on the stated rates, not on these rows.

smiles	hNpr1 antagonist
O=C(NC1C[C@H]2CC[C@@H](C1)N2C(=O)CCC1CCCC1)c1ccncc1 (stereo partly drawn)	?
CN1CCN(c2ccc(C(=O)N3CCC(n4cnnc4)CC3)cc2)CC1	-1.3%
CCN(CC)CC[C@H]1CN(C(=O)NC(C)C)CC[C@H]1CC(=O)O	3.9%[70.6 µM]
COc1cccc(C(=O)Nc2ccc3c(c2)CN(Cc2ccc(F)cc2)C(=O)C(C)O3)c1 (stereo not drawn)	-16.0%
COc1cccc(C(=O)N2CCC(c3n[nH]c(=O)n3-c3ccccc3)CC2)c1OC	0.0%
O=C(c1ccsc1)N1CCC2(CC1)NCCc1c2[nH]c2ccccc12	-0.5%
COc1ccc(CNC(=O)C[C@@H]2CCNC[C@@H]2Cc2cc(-c3ccc(F)cc3)on2)cc1	-6.3%
Cc1nc(-c2c3n(c(=O)n(Cc4ccccc4C)c2=O)CCCCC3)no1	13.2%
COCc1cc(C[C@@H]2CC[C@H](O)[C@@H](CNCc3cccc(F)c3)O2)no1	-0.9%[70.6 µM]
CCc1nc(-c2c3n(c(=O)n(CC(=O)Nc4cc(C)cc(C)c4)c2=O)CCCC3)no1	0.8%
COc1ccc(C(=O)N2CCC3(CC2)CC(Cc2nc(C4CC4)no2)CCO3)c(OC)n1 (stereo not drawn)	-10.3%
CCC(CC)C(=O)N1CCC2(CC1)C(=O)N(CC)c1ccccc12	4.6%
CN(Cc1cccnc1)c1ccc2ncc(Nc3ccc(F)cc3)n2n1	?
CCCNC(=O)N(C1CCOCC1)C1CCN(C(=O)c2ccc(F)cc2)CC1	0.0%
CN(C)C[C@@H]1CN(c2ncccn2)C[C@H]1NC(=O)Cc1c[nH]c2ccccc12	-0.7%
O=C(C1CC1)N1CCC(C(=O)N2CC(OCc3ccccc3)C2)CC1	-1.9%
CC(C)N(C)Cc1ccc(-c2nc(-c3cccnc3)cc(=O)[nH]2)cc1	4.6%
Cc1ccc(S(N)(=O)=O)cc1C(=O)N[C@H](c1cnn(C)c1)C1CC(O)C1 (stereo partly drawn)	14.8%
O=C(NC1CCN(c2cc(-c3ccccc3)[nH]n2)CC1)c1ccc2c(c1)OCO2	-24.9%
C[C@H]1CN(C(=O)Cc2ccccc2)C[C@@H]1c1nc(-c2ccncc2)no1	-15.5%
Cn1nc(C(=O)N2CCC3(CC2)CC(OCC2CC2)CCO3)c2ccccc21 (stereo not drawn)	3.2%
N#Cc1cccc(N2CCC(Oc3ccc(Cl)cc3)(C(=O)O)CC2)n1	-1.0%
CCCc1cc(C(=O)N2CC[C@H]3CNC[C@H]32)n(C)n1	-0.7%
CC1(C)CN(C(=O)c2ccnc(-n3cnnc3)c2)CC1(C)O (stereo not drawn)	3.1%
CS(=O)(=O)N(C1CCOCC1)C1CN(C(=O)c2ccccn2)C1	2.5%

Reformatted with each value named: entries from further up.
Cc1ccc(S(N)(=O)=O)cc1C(=O)N[C@H](c1cnn(C)c1)C1CC(O)C1 (stereo partly drawn)
  hNpr1 antagonist: 14.8%

O=C(NC1CCN(c2cc(-c3ccccc3)[nH]n2)CC1)c1ccc2c(c1)OCO2
  hNpr1 antagonist: -24.9%

C[C@H]1CN(C(=O)Cc2ccccc2)C[C@@H]1c1nc(-c2ccncc2)no1
  hNpr1 antagonist: -15.5%

Cn1nc(C(=O)N2CCC3(CC2)CC(OCC2CC2)CCO3)c2ccccc21 (stereo not drawn)
  hNpr1 antagonist: 3.2%

Further compounds follow.
smiles	hNpr1 antagonist
COC(=O)c1ccccc1NC(=O)CN1C(=O)NC2(CCC(C)CC2)C1=O (stereo not drawn)	-10.9%
O=C(O)CCn1ncc2cc(OC3CCN(C(=O)c4cc(F)ccc4Cl)CC3)ccc21	0.1%
COCCn1c(=O)n([C@H]2CCCN(S(=O)(=O)c3cccc(OC)c3)C2)c2ncccc21	2.2%
O=C(C1CCCC1)N1CCOc2ccc(CN3CCc4ccccc4C3)cc2C1	-16.1%
Cc1cccc(CN2CCN(Cc3nc(-c4ccco4)oc3C)C(C)C2=O)c1 (stereo not drawn)	-9.7%
CCn1c(CO)nnc1C1CC(NC(=O)Cn2cnc3ccccc3c2=O)C1 (stereo not drawn)	4.2%
CCN1CC2(CCN(C(=O)CCn3nnnc3C)CC2)CC1=O	0.0%
COc1ccc2c(c1)CN(C(=O)C1CC1)CC[C@H]1COC(=O)N21	0.0%[70.6 µM]
CC1CCC(Nc2ncncc2-c2nc(-c3ccccc3)no2)CC1 (stereo not drawn)	-5.3%
COc1ccc(C[C@H](NC(=O)C2=C[C@@H](NC(=O)c3cccnc3)[C@@H](O)[C@H](O)C2)C(N)=O)cc1	-0.5%
CN1CCC(N2C[C@@H]3C[C@H]2C(=O)N(Cc2ccc(OC(F)(F)F)cc2)c2ccccc2O3)CC1	-3.3%
CC(C)CCNC(=O)C1CC(=O)N(c2n[nH]c3ccccc23)C1 (stereo not drawn)	1.7%
COc1ccc(CNC(=O)Cn2nc3n(c2=O)CCCCC3)cc1OC	-2.6%
Cc1cc(C(F)(F)F)nn1CC(=O)N1CCCCCCN(C)C(=O)[C@@H]2CCC[C@@H]21	-0.3%
CN(C)[C@@H]1CN(Cc2cccc(C#N)c2)CC[C@@H]1CNC(=O)C1CC1	1.9%
Cn1c(=O)c2c(ncn2CC(=O)N2CCCC(Cc3nncn3-c3ccccc3)C2)n(C)c1=O (stereo not drawn)	-2.6%
Fc1ccc(CN2CCCC3(CCN(c4cnccn4)C3)C2)cc1F (stereo not drawn)	3.6%
CNC(=O)[C@@H]1CN(C(=O)Cn2cc(C)cn2)C[C@H]1COC	1.4%
COc1cccc(Nc2ncc(-c3cccc(N(C)C)c3)c3c2OCC3)c1	?
COc1ccc(C2(C(=O)N3CCCN(C)c4ccccc43)CC2)cc1	-4.7%
O=C(O)COc1ccc(-c2nccc3c2C(=O)N(Cc2cccc(C(F)(F)F)c2)CC(COc2ccccc2)O3)cc1 (stereo not drawn)	2.4%
O=C1NCCCCCN(C(=O)Cc2cccnc2)[C@H]2CCC[C@@H]12	3.9%
COc1cc(OC)nc(N2C[C@H]3OC(=O)N(CCN4CCCCC4)[C@H]3C2)n1	-0.8%
Cc1cccc(CN2CCCC(O)(CNCC(C)(C)C)C2=O)c1 (stereo not drawn)	4.7%
O=C(c1ccc(C(F)(F)F)cc1)N1CCC(N2CC3CCCN3C2=O)CC1 (stereo not drawn)	2.4%
COc1ccc(-c2cc3nc4c(c(=O)n3[nH]2)CN(C(=O)c2sccc2C)CC4)cc1	0.3%
CS(=O)(=O)N1CCC(OC2CCN(C(=O)Nc3ccc(Cl)cc3F)CC2)CC1	?
COc1ccc(C2Cn3nnc(C(=O)NCc4ccc(F)c(Cl)c4)c3CO2)cc1 (stereo not drawn)	-11.7%
CC(C)(C)c1oc(C(N)=O)cc1CN1CCC2(CCCNC2=O)C1 (stereo not drawn)	12.5%
O=C(NCC1CCOCC1)Nc1cc(F)c(F)c(F)c1	0.7%
COc1cccc(CN2CC[C@@](O)(C3CC3)[C@H](C)C2)c1OC	-0.4%
Cn1cnc(S(=O)(=O)N2CCOc3ccc(CN4CCc5ccccc5C4)cc3C2)c1	-0.4%
C[S+](=O)([O-])c1ccc(-c2nccc3c(=O)cc(-c4cccnc4)oc23)cc1	-2.7%[70.6 µM]
Cc1cccc(C)c1-c1nc(C(=O)NCc2ccc3c(c2)OCO3)n2ccccc12	-0.6%
COCCN1CCC(CN(Cc2ccncc2)C(=O)c2ccc(=O)n(C)n2)CC1	1.4%
CC(C(=O)NCC1CCCO1)N1C(=O)COc2ccc(C(=O)COc3cccc(Cl)c3)cc21 (stereo not drawn)	7.8%
CCn1ncc(N2CCCC(CC(=O)NCC3CC3)C2)cc1=O (stereo not drawn)	1.4%
Cc1ncsc1C(=O)N1CCNc2cnc(Nc3cccc(C(F)(F)F)c3)nc2C1	?
O=C(O)COCC(=O)N1CC[C@H](c2nc3ccccc3[nH]2)C1	1.9%[70.6 µM]
Cc1ccc(F)cc1NC(=O)c1cc(-c2ccc[nH]2)n[nH]1	-6.9%
COCCCNC(=O)C(NC(=O)C1CC1)C1CCN(C(=O)c2ccccc2)CC1 (stereo not drawn)	-10.7%
CCOc1ccc(CN2CCc3nc(N(C)C)[nH]c(=O)c3CC2)cc1	-0.6%
CCC(c1cccs1)N1C(=O)[C@H]2CN(S(=O)(=O)c3ccc(C(C)C)cc3)C[C@H]2C1=O (stereo partly drawn)	?
O=C1CC(c2noc(-c3ccccc3OC(F)(F)F)n2)CN1C1CCCCC1 (stereo not drawn)	-3.3%
CCOc1ccccc1C(=O)NC1CCN(c2cc(-c3ccccc3)[nH]n2)C1 (stereo not drawn)	1.8%
O=C1c2cnc(-c3ccsc3)nc2OCCN1c1cccc(C(F)(F)F)c1	?
COc1ccc(CNC(=O)N2CCCCCCNC(=O)[C@@H]3CCCC[C@@H]32)cc1	-14.2%
O=C(Nc1ccc(OC(F)(F)F)cc1)c1cc(-c2ccc[nH]2)n[nH]1	0.5%
NC[C@H]1O[C@@H]2C[C@@H](CC(=O)N3CCOCC3)O[C@@H]2[C@@H]1O	0.6%[70.6 µM]
Cc1cccc(Cn2c(-c3ccc(F)cc3)nc(C)c(CCO)c2=O)c1	3.6%

(next part)
smiles	hNpr1 antagonist
O=C(Cc1ccccc1Cl)N1CCN(c2cc(-c3ccccc3)[nH]n2)CC1	-3.5%
Cc1ccc(C2CC(=O)Nc3c2c(C2CC2)nn3C)c(C)c1F (stereo not drawn)	?
Cc1noc2c(N3CCOCC3)cc(-c3cccnc3)nc12	10.2%[70.6 µM]
COC[C@]1(O)CCN(C(=O)c2ccc3c(c2)CCC3)CC1(C)C	-1.9%
CC(c1ccc(-c2ccc(CC(=O)O)cn2)cc1)N1CCCCC1 (stereo not drawn)	6.6%
COc1ccc(NC2CCCN(C(=O)CCCS(N)(=O)=O)C2)cc1 (stereo not drawn)	0.3%
O=C(c1ccc(-c2ccc(N3CCCCC3)nc2)cc1)N1CCOCC1	-16.1%
CCC(=O)N1CCN(c2nc3c(s2)CC(C(=O)Nc2ccc(F)cc2)CC3)CC1 (stereo not drawn)	?
O=C(c1ccc(F)cc1)N1CCC(N2CCCNC2=O)CC1	25.0%&8.3%[70.6 µM]
Cc1ccc(C(=O)NCC2Cn3cccc3C(=O)N2C)cn1 (stereo not drawn)	0.8%
Cc1ccc(NC(=O)N2CCC(OC3CCN(S(C)(=O)=O)CC3)CC2)cc1	-5.6%
COc1ccccc1Cn1c(C(C)NC(=O)OCc2ccccc2)nc2cccnc21 (stereo not drawn)	-0.5%
Cc1nnnn1CCCN1CCC2(CCC(=O)N(CC(C)O)C2)CC1 (stereo not drawn)	0.3%
CCc1ccccc1NC(=O)CN1C(=O)C(c2ccccc2)=NC12CCCC2	-8.4%
CC(C)(C)CC(=O)N[C@H]1C[C@H]2C(=O)Nc3ccc(-c4cccs4)cc3C(=O)N2C1	2.5%[70.6 µM]
CCOc1ccc(C2Cn3nnc(-c4nc(-c5cccc(Cl)c5)no4)c3CO2)cc1 (stereo not drawn)	-6.7%
CCOc1ccc(C(=O)N2[C@@H]3CC[C@H]2CC(NC(=O)c2ccncc2)C3)cc1OCC (stereo partly drawn)	5.0%
COCC(=O)N[C@H]1CCN2C(=O)c3cc(-c4ccc(F)cc4F)ccc3NC(=O)[C@@H]2C1	5.6%[70.6 µM]
COCCNC(=O)CN1CCCc2nc(C3CC3)ncc2C1=O	-8.0%
O=C1[C@@H]2C[C@@H](O)CN2C2(CN(Cc3ccccc3)C2)C(=O)N1Cc1ccccc1Cl	-1.1%[70.6 µM]
CC(C)NC(=O)CCc1nnc(-c2cccc(OC(C)C)c2)[nH]c1=O	-6.0%
COc1cccc([S+](=O)([O-])N2CCc3nc(C)nc(-c4ccc(Cl)cc4)c3C2)c1	-0.3%
CCc1csc(CNC(=O)c2ccc(N3CCN(C)C(C)C3)nc2)n1 (stereo not drawn)	4.8%
CCS(=O)(=O)N(C1CC1)C1CCOC2(CCN(C(=O)Cc3cccc(C)c3)CC2)C1 (stereo not drawn)	0.0%
CN1CCN(C(=O)CSCc2ccccc2Cl)[C@H]2CS(=O)(=O)C[C@H]21	5.3%
Cn1c(C(=O)N2CCNc3cnc(Nc4ccccc4)nc3C2)cc2ccccc21	?
CCc1cc(=O)n(CC(=O)Nc2cccc(C#N)c2)c(N2CCOCC2)n1	2.2%
CC(C)n1cnnc1CC1CCN(C(=O)CN(C)S(=O)(=O)c2cccs2)CC1	-0.8%
C=CCNC(=O)N[C@H]1[C@H](O)[C@@H](N2CCC(Cc3ccccc3)CC2)[C@@H]2OC[C@H]1O2	-0.8%[70.6 µM]
COCCN1CCC(C(=O)N2Cc3cnc(CC(C)C)nc3C2)CC1	3.0%
O=C(NC1CCN(c2cnn(CC3CC3)c(=O)c2)CC1)c1ccc2c(c1)OCO2	3.2%
O=C(CC1=C2CCCCC2NC1=O)NCC1CCN(Cc2cccc(F)c2)CC1 (stereo not drawn)	-3.4%
Cc1cccc(N2CCN(C(=O)c3noc(-c4ccc[nH]c4=O)n3)CC2)c1	-4.7%
